Cruzain Triton: blocks cruzain activity in presence of Triton detergent; Potency, µM, without a hit: max response, negative = inhibition, hits mostly inhibitors; purified cruzain, Z-FR-AMC fluorescence, 0.01% Triton; actives 0.43% (n = 200,000);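 note: plate controls were neutral wells for no effect and buffer without enzyme for full effect; nearly all actives have a fitted effect of over 40% in size; top concentration of the series not given in the record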
Target sequence (P25779 123-467 limits assumed): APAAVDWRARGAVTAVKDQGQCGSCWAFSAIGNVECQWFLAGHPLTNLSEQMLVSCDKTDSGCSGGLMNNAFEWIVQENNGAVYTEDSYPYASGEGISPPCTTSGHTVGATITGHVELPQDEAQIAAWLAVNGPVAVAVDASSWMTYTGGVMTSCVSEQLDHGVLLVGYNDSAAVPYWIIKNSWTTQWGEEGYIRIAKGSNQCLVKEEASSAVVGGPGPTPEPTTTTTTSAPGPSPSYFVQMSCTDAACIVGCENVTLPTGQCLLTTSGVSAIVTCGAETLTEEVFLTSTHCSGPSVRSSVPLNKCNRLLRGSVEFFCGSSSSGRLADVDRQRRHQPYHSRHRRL
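Cysteine protease activity tested under reducing, mildly acidic conditions (100 mM sodium acetate pH 5.5, 5 mM DTT) plus 0.01% Triton X-100. Cruzain 1.5 nM; substrate Z-FR-AMC 2 uM; 15 min compound preincubation at room temperature.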
NS1 function inh: inhibitors of influenza NS1 protein function; actives 0.4% (n = 270,000); Potency, µM (highest dose often 46.1 µM), without a hit: at the top dose activity, positive = more growth; S. cerevisiae slowed by influenza A NS1, growth recovery by OD600; AID 2326; active means well fitted rising curve with a large enough effect; inconclusive means small, poorly fitted or top-dose-only effect; inactive means no such curve, though single readings can be large or run the other way; note: nearly all actives have a fitted effect of over 50% in size
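In this qHTS, NS1 from influenza A is expressed in budding yeast, where it slows growth. Cells are switched from glucose to 2% galactose medium (pH 6.0, -URA), treated with compound, and growth recovery is read at OD600.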
Lassa entry inh: Lassa virus entry inhibition; actives 1.2% (n = 300,000); Potency, µM (series often up to 37.9 µM), inactives show top-dose activity change, negative = inhibition, hits mostly inhibitors; Lassa virus pseudotype entry inhibition, cell reporter; control for the full effect not named in the record; AID 540256; active means well fitted inhibition curve with a large enough effect; inconclusive means small, poorly fitted or top-dose-only effect, or effect the other way; inactive means flat fitted curve, though single readings scatter; tested in HEK293 cells; note: % is set by controls: 0 for no effect and ±100 for the full control effect; nearly all actives have a fitted effect of over 50% in size; luciferase read-out
MARV entry inh: Marburg virus entry inhibition; Marburg virus pseudotyped entry inhibition, cell reporter; control for the full effect not named in the record; about a third of the inactives were read at about 46 µM; Potency, µM (highest dose often 37.8 µM), inactives show at the highest dose activity change, negative = inhibition, hits mostly inhibitors; actives 1.8% (n = 300,000); AID 540276; active = well fitted inhibition curve with a large enough effect; inconclusive = small, poorly fitted or top-dose-only effect, or effect the other way; inactive = flat fitted curve, though single readings scatter; tested in HEK293 cells; about a fifth of its hits are not listed in these tables; note: % is set by controls: 0 for no effect and ±100 for the full control effect; luciferase read-out
SARS PLpro yeast: SARS-CoV PLP inhibition in yeast; S. cerevisiae expressing SARS-CoV PLpro, growth rescue; control for the full effect not named in the record; AID 485353; Potency, µM (top dose mostly 32.9 µM), inactives show at the highest dose activity, positive = growth rescue; actives 0.19% (n = 330,000); active means well fitted rising curve with a large enough effect; inconclusive means small, poorly fitted or top-dose-only effect; inactive means no such curve, though single readings can be large or run the other way; note: 0% is about no effect; nearly all actives have a fitted effect of over 55% in size; growth read by luminescence after 48 h
RE007 growth inh: less growth of the S. pombe RE007 Vpr strain; actives 0.21% (n = 360,000); AID 651644; S. pombe RE007 Vpr strain, BacTiter-Glo ATP luminescence, 24 h; control for the full effect not named in the record; Potency, µM (top dose mostly 92.2 µM), without a hit: at the highest dose activity change, negative = less growth; active = well fitted falling curve with a large enough effect; inconclusive = small, poorly fitted or top-dose-only effect; inactive = no such curve, though single readings can be large or run the other way;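 note: % is set by controls: 0 for no effect and ±100 for the full control effect; nearly all actives have a fitted effect of over 50% in size; the assay follows cell death caused by Vpr and the record does not say whether a fall means rescue or toxicity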
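Fission yeast strain RE007, carrying one chromosomally integrated HIV-1 vpr copy, was seeded at OD 0.01 in PMG+AL medium with 23 nL pinned compound. After 24 h at 30 °C and 99% humidity, viability was read by BacTiter-Glo luminescence.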
StopGo reporter: FMDV 2A StopGo reporter, luciferase signal; human cells with a luciferase reporter of 2A StopGo recoding; control for the full effect not named in the record; Potency, µM (series often up to 57.9 µM), inactives show top-dose signal change, negative = less light; actives 1.2% (n = 410,000); AID 1159524; active = well fitted falling curve with a large enough effect; inconclusive = small, poorly fitted or top-dose-only effect; inactive = no such curve, though single readings can be large or run the other way; tested in HEK293T cells; note: % is set by controls: 0 for no effect and ±100 for the full control effect; nearly all actives have a fitted effect of over 45% in size; luciferase light after 4 h
Cruzain noTriton: cruzain (T. cruzi) inhibition without detergent. AID 1476. actives 2.3% (n = 200,000). Potency, µM, inactives show max response, negative = inhibition, hits mostly inhibitors. purified cruzain, Z-FR-AMC fluorescence, no detergent. P25779;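 note: plate controls were enzyme without inhibitor for no effect and buffer without enzyme for full effect; nearly all actives have a fitted effect of over 40% in size; top concentration of the series not given in the record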
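Purified cruzain at 1.5 nM, pre-incubated 15 min with compound at room temperature in 100 mM sodium acetate pH 5.5, 5 mM DTT, 0.00005% Triton X-100. Reaction started with 2 uM Z-FR-AMC; AMC fluorescence increase over 60 s gives rate.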
* marks the source's active call; other numbers are inactive results; u = inconclusive; x = not tested or not shown; & = joins results of further samples; [ ] = dose if it differs, or a comment. Unless noted, calls come from the whole dose curve; as a rule, active = well fitted curve in the direction sought with a large enough effect; inconclusive = small, poorly fitted or top-dose-only effect, or another doubt; inactive = no such curve, though single readings can be large; an effect the other way counts as inactive or inconclusive. Potency is the fitted concentration of half-maximal effect.

canonical_smiles | Cruzain Triton | NS1 function inh | Lassa entry inh | MARV entry inh | SARS PLpro yeast | RE007 growth inh | StopGo reporter | Cruzain noTriton
COc1ccc(S(=O)(=O)NCCC(=O)NCc2ccccc2)cc1 | 2.8% | -4% | 22%[14.3 µM] | -1% | 9% | 13% | 2% | -5%
O=S(=O)(NCc1ccc(F)cc1)c1ccc(-c2cnc(C3CC3)o2)cc1 | -3.8% | 2% | u | x | 0% | 1% | 1%&-7% | -20%
CCn1c(CC(=O)Nc2ccc(C)cc2)nnc1SCC(=O)NCc1ccccc1 | 4.9% | -20% | 4% | 10% | 4% | 7% | -2% | 2%
CCC(=O)NCCc1nc2ccccc2[nH]1 | 1.5% | 1% | -4% | 0% | -5% | -4% | x | 1%
CC(C)c1ccc(N2C(=O)/C(=C/N(C)C)SC2=S)cc1 | x | u | x | x | 5% | -24% | 1% | x
Cn1c(CC2Sc3ccccc3NC2=O)nnc1SCC(=O)c1ccc(Cl)cc1 (stereo not given) | x | -7% | 7% | -8% | -2% | -19% | -8% | x
CCc1ccc(OCc2nnc(SCC(=O)Nc3cccc(C(=O)N4CCOCC4)c3)o2)cc1 | -3.1% | 1% | -4% | 0% | 16% | 7% | 17% | u
O=C(Cc1ccccc1)NN1CCCCC1 | x | -1% | -1% | 1%[46.1 µM] | -1% | 23% | -21% | x
CCOc1ccc(NC(=S)N2CCc3cc(OC)c(OC)cc3C2COc2ccc3c(C)cc(=O)oc3c2)cc1 (stereo not given) | 6.3% | 11µM* | u | -2% | u | -21% | 0% | u
CCOc1ccc(OCC)c(-c2c(=O)n(OCc3ccc(Cl)cc3)c3ccccc3[n+]2[O-])c1 | 0.3% | 25% | u | -28% | -6% | 10% | -26% | 10%
CCOC(=O)c1ccc(NC2c3ccccc3C(=O)N2c2ccc(C)cn2)cc1 (stereo not given) | -8.3% | 1% | x | x | 0% | -8% | 20% | 14%
CC(C)CC(=O)NC(=S)Nc1ccc(F)cc1F | x | 4% | x | x | 0% | -4% | 2% | x
COc1cc2c(cc1OC)C(COc1cc(C)cc(C)c1)N(C(=O)c1ccc(S(=O)(=O)N3CCCC3)cc1)CC2 (stereo not given) | -0.9% | x | u | x | x | x | -17% | u
C=CCSc1nc(C)c(CC(=O)OCC(C)C)c(=O)[nH]1 | 0.6% | -3% | 7% | 0% | 1% | -7% | -4% | 4%
CC1CCCC(C)N1C(=O)Cn1cc(/C=C2/C(=O)Nc3ccccc32)c2ccccc21 (stereo not given) | -5.3% | 19% | u | u | -3% | -17% | -9% | -5%
CC(C)(C)CC(=O)Nc1nnc(SCC(=O)N2CCCCC2)s1 | x | -2% | 0% | -8%[46.1 µM] | 1% | 3% | 0% | x

Some of these compounds in order of molar mass, rising.
canonical_smiles | Cruzain Triton | NS1 function inh | Lassa entry inh | MARV entry inh | SARS PLpro yeast | RE007 growth inh | StopGo reporter | Cruzain noTriton
O=C(Cc1ccccc1)NN1CCCCC1 | x | -1% | -1% | 1%[46.1 µM] | -1% | 23% | -21% | x
C=CCSc1nc(C)c(CC(=O)OCC(C)C)c(=O)[nH]1 | 0.6% | -3% | 7% | 0% | 1% | -7% | -4% | 4%
CC(C)c1ccc(N2C(=O)/C(=C/N(C)C)SC2=S)cc1 | x | u | x | x | 5% | -24% | 1% | x
COc1ccc(S(=O)(=O)NCCC(=O)NCc2ccccc2)cc1 | 2.8% | -4% | 22%[14.3 µM] | -1% | 9% | 13% | 2% | -5%
CC(C)(C)CC(=O)Nc1nnc(SCC(=O)N2CCCCC2)s1 | x | -2% | 0% | -8%[46.1 µM] | 1% | 3% | 0% | x
O=S(=O)(NCc1ccc(F)cc1)c1ccc(-c2cnc(C3CC3)o2)cc1 | -3.8% | 2% | u | x | 0% | 1% | 1%&-7% | -20%
CCOC(=O)c1ccc(NC2c3ccccc3C(=O)N2c2ccc(C)cn2)cc1 (stereo not given) | -8.3% | 1% | x | x | 0% | -8% | 20% | 14%
CC1CCCC(C)N1C(=O)Cn1cc(/C=C2/C(=O)Nc3ccccc32)c2ccccc21 (stereo not given) | -5.3% | 19% | u | u | -3% | -17% | -9% | -5%
CCOc1ccc(OCC)c(-c2c(=O)n(OCc3ccc(Cl)cc3)c3ccccc3[n+]2[O-])c1 | 0.3% | 25% | u | -28% | -6% | 10% | -26% | 10%
CCOc1ccc(NC(=S)N2CCc3cc(OC)c(OC)cc3C2COc2ccc3c(C)cc(=O)oc3c2)cc1 (stereo not given) | 6.3% | 11µM* | u | -2% | u | -21% | 0% | u
COc1cc2c(cc1OC)C(COc1cc(C)cc(C)c1)N(C(=O)c1ccc(S(=O)(=O)N3CCCC3)cc1)CC2 (stereo not given) | -0.9% | x | u | x | x | x | -17% | u

Further compounds follow.
canonical_smiles | Cruzain Triton | NS1 function inh | Lassa entry inh | MARV entry inh | SARS PLpro yeast | RE007 growth inh | StopGo reporter | Cruzain noTriton
COc1ccccc1OCC(=O)Nc1ccc(S(=O)(=O)N2CCCCCC2)cc1 | 0.4% | -8% | 8% | u | -3% | 0% | x | -18%
Cc1cccc(NS(=O)(=O)c2ccc(C(=O)N3CCC3)cc2)c1C | x | x | -19% | -5%[46.1 µM] | -3% | -4% | -13% | x
C/C(=N\Nc1cccc2cccnc12)c1ccc(C)cc1 | x | 8% | x | x | -2% | u | 60%[activator] | x
O=C(NCCOc1ccccc1)c1cc2ccccc2o1 | -3.4% | -60% | u | u | x | -14% | 45%[activator] | -10%
CCOC(=O)N1CCN(CC(=O)Nc2ccc(F)c(F)c2)CC1 | x | x | u | -10%[14.2 µM] | 1% | 6% | -22% | x
COc1ccc(C(=S)N(C)C)cc1OC | -1.3% | -5% | -1% | 12% | 2% | -7% | 16% | 0%
Cn1nc(C(=O)Nc2nc3ccccc3[nH]2)ccc1=O | x | x | u | u | -2% | 8% | 15% | x
COc1ccccc1OCCCOc1ccc([N+](=O)[O-])cc1Cl | -3.3% | -19% | 19% | u | -10% | -5% | -5% | 0%
CN(C)S(=O)(=O)n1cc(/C=C(\NC(=O)c2ccccc2Cl)C(=O)NCCCn2ccnc2)c2ccccc21 | -3.5% | -7% | -24%[46.1 µM] | u | 1% | -10% | 23%&35% | u
O=C(COc1ccccc1)n1nc(-c2ccc(Cl)cc2)nc1NCc1ccco1 | -0.4% | -5% | u | u | 8% | 7%[3.69 µM] | 19% | -24%
O=C1CCCc2cc(S(=O)(=O)NCC3CCC(C(=O)NCc4ccc(F)cc4)CC3)ccc2N1 (stereo not given) | 1.1% | x | 10%[46.1 µM] | x | x | x | -2% | -19%
COc1ccc(OCCCn2cc(/C=C3/C(=N)N4C=C(C)SC4=NC3=O)c3ccccc32)cc1 | -3.1% | 10% | u | u | 8% | x | 1% | 25µM*
C=C1C(O)(c2ccccc2)C2CC[N+]1(C)CC2 (stereo not given) | 13% | 7% | -9% | -9% | 3% | -9% | x | 8%
Cc1ccc(N(CC(=O)N(C)Cc2ccccc2)S(C)(=O)=O)cc1C | x | 4% | x | x | 2% | 16% | -23% | x
CCO/N=C(\C)c1c(O)cc(C(C)C)n(-c2ccccc2)c1=O | -0.7% | -18% | 1% | 12% | 9% | 0% | 8% | 4%
COc1ccc(OC)c(NC(=O)Cc2coc3ccc(C)cc23)c1 | -12% | -96% | 0% | -5% | -9% | 2% | -16% | -7%
CCOc1cccc(-c2c(C(=O)N/N=C(\C)c3cccs3)nnn2-c2nonc2N)c1 | x | 0% | x | x | -2% | 3% | -1% | x
CN1CCN(c2ccc(NC(=O)c3ccc4ccccc4c3)cc2)CC1 | x | 3% | u | u | 2% | -7% | -72% | x
CCCN1C(=O)c2ccccc2NC1c1ccc(OC)c(CSc2ccccn2)c1 (stereo not given) | -7.5% | 7% | u | u | -14% | 50% | 0% | 14%
COc1ccc(S(=O)(=O)NCCc2csc(C)n2)cc1C | 3.7% | 0% | -5% | 4% | 3% | 0% | 27% | -4%
O=C(NCCc1ccc(F)cc1)c1cccc(NC(=O)c2ccccc2)c1 | x | -8% | x | x | -3% | -10% | -2% | x
O=C(NCCc1ccccc1)C1CCCN(S(=O)(=O)c2cccnc2)C1 (stereo not given) | 6.3% | -4% | -4% | -6% | 4% | -9% | -6% | -2%
Cn1ncc(N=Cc2ccc([N+](=O)[O-])cc2)c1C(=O)N1CCOCC1 | 1.2% | 7% | 8% | 17% | -7% | -20% | x | 6%
COc1ccc(/C=C/C(=O)Nc2cc(C)on2)cc1 | -4.9% | -4% | u | 21% | -23% | -10% | 15% | u
Cc1cccc(C(=O)NCc2ccc(S(N)(=O)=O)cc2)c1[N+](=O)[O-] | -3.0% | 18% | 5% | 14% | 7% | -8% | -21% | 3%
CCCc1cc(=O)oc2cc(OCC(=O)NCc3ccccn3)ccc12 | x | 1% | x | x | -9% | 1% | -17% | x
Cc1ccc(NC(=O)C2CC(=O)N(c3ccc(OC(C)C)cc3)C2)cc1 (stereo not given) | -1.3% | x | -19%[46.1 µM] | x | x | x | 6% | 15%
COc1cc2ccccc2cc1C(=O)Nc1ccc(O)cc1 | x | -6% | x | 9% | 2% | u | 29% | x
O=C(O)CCCNC(=O)/C(=C\c1ccc(Cl)cc1)NC(=O)c1ccccc1Br | x | 4% | 25%[46.1 µM] | 0%[46.1 µM] | -1% | 8% | 3% | x
O=C(OCc1nc2ccccc2s1)c1cnccn1 | -0.2% | -62% | 7% | 24% | 0% | -11% | 56%[activator] | -26%
NC(=O)c1ccccc1N/C=C1\CCCCC1=O | x | 4% | x | x | 1% | -5% | 12% | x
CCS(=O)CCSC(=N)N (stereo not given) | 4.1% | 1% | 4% | 9% | 0% | 10% | -13% | -12%
CC1=C(CCN2CCN(C(C)C)C(CCO)C2)C(C)(C)CCC1 (stereo not given) | x | -2% | u | u | -1% | -5% | -7% | x
CC(C)Cc1nc2oc3c(NCC(C)O)ncnc3c2c2c1CCCC2 (stereo not given) | x | 6% | x | x | 0% | 6% | -23% | x
Cc1ccc(Sc2ccc(C=C3C(=O)N(C)C(=O)N(C)C3=O)o2)cc1 | x | -2% | -19% | 5% | 0% | 5% | u | x

Screening data (PubChem)
